KCNQ2 pot – enhances the rat KCNQ2 potassium channel. O88943. CHO-K1 KCNQ2, FluxOR thallium flux fluorescence; stronger effect = higher value. B-score at 10 µM. 310,000 tested, 0.54% active. AID 2239;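 active means fluorescence ratio B-score at least 3 SD of library B-scores, with initial fluorescence B-score within 3 SD, cut at about 5.3 in these data; same plate scores as AID 2156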;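 further: B-score of peak minus minimum over baseline fluorescence ratio after K+ and Tl+ stimulus; positive B-score means potentiation of KCNQ2 with more thallium influx and brighter signal; only the inactives scoring about 0 or higher are listed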
Target sequence (O88943 whole entry, looked up): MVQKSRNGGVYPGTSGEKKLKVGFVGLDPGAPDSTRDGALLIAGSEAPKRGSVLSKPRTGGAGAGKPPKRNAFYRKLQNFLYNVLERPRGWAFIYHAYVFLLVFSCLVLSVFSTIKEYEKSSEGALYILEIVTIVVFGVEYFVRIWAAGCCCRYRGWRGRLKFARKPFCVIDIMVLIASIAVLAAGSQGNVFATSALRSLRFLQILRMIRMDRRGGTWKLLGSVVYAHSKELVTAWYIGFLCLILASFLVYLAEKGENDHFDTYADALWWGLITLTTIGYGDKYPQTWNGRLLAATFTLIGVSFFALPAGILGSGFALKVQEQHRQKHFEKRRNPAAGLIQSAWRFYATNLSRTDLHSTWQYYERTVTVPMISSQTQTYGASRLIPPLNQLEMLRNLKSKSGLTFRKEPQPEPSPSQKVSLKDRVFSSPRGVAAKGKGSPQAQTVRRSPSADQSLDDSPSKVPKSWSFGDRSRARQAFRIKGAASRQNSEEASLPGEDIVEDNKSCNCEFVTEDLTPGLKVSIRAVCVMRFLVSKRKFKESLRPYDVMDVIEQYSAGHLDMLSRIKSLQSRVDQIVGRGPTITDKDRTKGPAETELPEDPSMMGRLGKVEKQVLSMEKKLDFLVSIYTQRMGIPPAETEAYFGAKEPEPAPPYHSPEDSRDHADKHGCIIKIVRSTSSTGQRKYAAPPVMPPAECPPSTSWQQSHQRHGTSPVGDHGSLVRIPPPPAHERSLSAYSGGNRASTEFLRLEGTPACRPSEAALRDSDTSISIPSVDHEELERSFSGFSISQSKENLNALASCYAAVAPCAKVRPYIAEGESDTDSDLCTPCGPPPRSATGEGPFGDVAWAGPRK
KCNQ2 pot baseline – second read-out of KCNQ2 pot, no call of its own (marks repeat the call); B-score; compound at 10 µM; measured here: initial fluorescence intensity artifact check;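 brightness before thallium and not channel activity; 0 = typical well and far values either way flag optical interference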
* = called active by the depositor.

The first 2 entries, ahead of the listing:
item	KCNQ2 pot baseline	KCNQ2 pot	SMILES
1	-3.1	0.48	O=C(CC(=O)N/N=C/c1ccc(F)cc1)N/N=C/c1ccc(F)cc1
2	-2.2	0.36	Cc1ccccc1CC(=O)Nc1ccon1

The listing, previewed entries included:
item	KCNQ2 pot baseline	KCNQ2 pot	SMILES
1	-3.1	0.48	O=C(CC(=O)N/N=C/c1ccc(F)cc1)N/N=C/c1ccc(F)cc1
2	-2.2	0.36	Cc1ccccc1CC(=O)Nc1ccon1
3	-1.5	0.02	C(=N\n1cnnc1)/c1ccc(OCc2ccccc2)cc1
4	-0.51	0.02	CCCCCCCCn1c(N2CCN(c3cccc(Cl)c3)CC2)nc2c1c(=O)[nH]c(=O)n2C
5	-0.68	0.31	Cc1cc(C(=O)N2CCCC(Nc3ccc(C(C)C)cc3)C2)nn1C (stereo not drawn)
6	1.1	0.04	CCCS(=O)(=O)N1CCC(C(=O)NC2CCC(C)CC2)CC1 (stereo not drawn)
7	-1.1	0.79	COc1cc(CNCc2cccs2)ccc1OCc1cccs1
8	0.34	1	CC1CCN(C(=S)NC(=O)c2ccco2)CC1
9	0.44	0.73	COc1ccc(C(=O)Nc2ccccc2C)cc1S(=O)(=O)N1CCOCC1
10	0.23	0.92	Cc1cc(C(=O)COc2ccc(C#N)cc2)c(C)n1-c1ccc2c(c1)OCO2
11	-0.04	1.1	O=C(NNS(=O)(=O)c1ccc(Br)cc1)c1sccc1-n1cccc1
12	0.82	0.54	CCNC(=O)CN(c1ccc(C)cc1)S(=O)(=O)c1ccc(SC)cc1
13	-2.3	0.4	CCCCSc1nnc(CSc2nc3nc(C)cc(C)n3n2)o1
14	-0.07	0.25	CCCCCCN1CC(C(=O)OCC)C(=O)C1=O (stereo not drawn)
15	0.34	0.84	N#CC1=C(N)C(C#N)(C#N)C(c2cccnc2)C2CN(C(=O)OCc3ccccc3)CC=C12 (stereo not drawn)
16	-0.33	0.11	O=C(NC1CCCCCC1)c1ccc(CS(=O)(=O)Cc2ccc(F)cc2)o1
17	-0.83	0.4	COc1ccc(OC)c2c(C)c(C)[nH]c12
18	-0.48	0.59	CC(C)OP(=O)(c1ccc(N(C)C)cc1)C(O)c1ccccc1 (stereo not drawn)
19	1.3	1.6	COc1cc(NC(=O)Nc2ccc(Cl)c(Cl)c2)c(C(=O)O)cc1OC
20	-1.6	0.03	O=C(CC1C(=O)NCCN1Cc1ccoc1)NCCc1ccc(Cl)cc1 (stereo not drawn)
21	-1.5	0.37	CN1CCN(C(=S)c2ccc(Cl)cc2)CC1
22	-0.55	0.38	CCn1c(C(=O)O)c(CC(=O)Nc2ccccc2OC)c2ccccc21
23	1.1	0.7	COc1ccc(/C=C/C(=O)Nc2ccc(OC)nc2)cc1
24	-0.83	0.49	COc1ccc(C(CCN2CCOCC2)c2c(O)cc(OC)cc2OC)cc1 (stereo not drawn)
25	-0.94	0.09	COc1ccc2[nH]c3nc(SCC(=O)NNC(=O)c4ccc(OC)c(OC)c4)nnc3c2c1
26	0.01	1.6	CC(C)(C)c1ccc(C(=O)NNC(=S)NCc2ccco2)cc1
27	0.16	0.92	COc1ccc(NC(=O)c2nc3nc(C)cc(C(F)F)n3n2)cc1OC
28	-1.1	0.87	CN1CCN(C(=O)Nc2ccc3c(c2)N(C)C(=O)c2ccccc2S3)CC1
29	0.94	0.49	COc1ccc(-n2nc(C(=O)NCC(=O)NCCN(C)C)c3ccccc3c2=O)c(OC)c1
30	-1.4	2	O=C(NCSc1ccccc1)c1ccccc1
31	-0.42	1.3	CCCn1c(C)cc(C(=O)COC(=O)c2nccnc2N)c1C
32	1.1	0.96	CCc1ccc(-c2nc(CS(=O)CC(=O)NCCc3ccccc3)c(C)o2)cc1 (stereo not drawn)
33	0.69	0.03	COc1cc(/C=N/O)cc(Cl)c1OC
34	-1.8	0.11	CN1CCN(S(=O)(=O)c2ccc(NS(=O)(=O)c3ccccc3)cc2)CC1
35	2	0.85	O=C(CSc1nc2ccccc2c(=O)n1Cc1ccco1)NCc1ccccc1
36	0.45	0.2	CC(=O)N1CCC2(CC1)C(C#N)=C(N)Oc1n[nH]c(C(F)(F)F)c12
37	-0.12	0.65	CCN(CC)c1ncnnc1-c1ccccc1
38	0.09	2	CC1CN(S(=O)(=O)c2ccccc2)C(C)CN1S(=O)(=O)c1ccccc1 (stereo not drawn)
39	-0.1	0.01	NC(=O)c1ccc2nc(-c3ccccc3)c(-c3ccccc3)nc2c1
40	1.3	0.04	CCCCn1c(N)c(N(CC)C(=O)/C=C/c2ccco2)c(=O)[nH]c1=O
41	-0.08	0.14	O=C(N/C(=C/c1ccc(F)cc1)C(=O)N1CCCCC1)c1ccco1
42	-2.8	2	CC(=O)Oc1ccc(C(=O)[C@H]2[C@H]3C(=O)N(c4cccc5ccccc45)C(=O)[C@H]3[C@@H]3C=CC=NN32)cc1
43	-2.5	0.46	Cc1ccc2cc(/C=N/NC(=O)[C@H]3C[C@@H]3c3ccccc3)c(Cl)nc2c1
44	0.99	0.24	Cc1nnc(NC2=NCCCCC2)o1
45	-0.01	0.51	Cc1ccc(NC(=O)CSCC(=O)OC(C)C(=O)Nc2ccc(S(N)(=O)=O)cc2)c(C)c1 (stereo not drawn)

Ordered by count of non-hydrogen atoms (largest number first): some entries from above
item	KCNQ2 pot baseline	KCNQ2 pot	SMILES
42	-2.8	2	CC(=O)Oc1ccc(C(=O)[C@H]2[C@H]3C(=O)N(c4cccc5ccccc45)C(=O)[C@H]3[C@@H]3C=CC=NN32)cc1
29	0.94	0.49	COc1ccc(-n2nc(C(=O)NCC(=O)NCCN(C)C)c3ccccc3c2=O)c(OC)c1
45	-0.01	0.51	Cc1ccc(NC(=O)CSCC(=O)OC(C)C(=O)Nc2ccc(S(N)(=O)=O)cc2)c(C)c1 (stereo not drawn)
32	1.1	0.96	CCc1ccc(-c2nc(CS(=O)CC(=O)NCCc3ccccc3)c(C)o2)cc1 (stereo not drawn)
43	-2.5	0.46	Cc1ccc2cc(/C=N/NC(=O)[C@H]3C[C@@H]3c3ccccc3)c(Cl)nc2c1
41	-0.08	0.14	O=C(N/C(=C/c1ccc(F)cc1)C(=O)N1CCCCC1)c1ccco1
36	0.45	0.2	CC(=O)N1CCC2(CC1)C(C#N)=C(N)Oc1n[nH]c(C(F)(F)F)c12
31	-0.42	1.3	CCCn1c(C)cc(C(=O)COC(=O)c2nccnc2N)c1C
30	-1.4	2	O=C(NCSc1ccccc1)c1ccccc1
33	0.69	0.03	COc1cc(/C=N/O)cc(Cl)c1OC

(continued)
item	KCNQ2 pot baseline	KCNQ2 pot	SMILES
46	0.57	0.99	CC(C)=CC(=O)Nc1ccc(Cl)cc1
47	-1	0.17	S=C(Nc1ccc(Cl)c(Cl)c1)N1CCCC1
48	0.03	0.31	O=C(c1ccc2c3c(cccc13)CC2)N1CCOCC1
49	-0.36	0.47	CC1CCCN(c2nc3c(c(=O)[nH]c(=O)n3C)n2CCSc2nc3ccccc3o2)C1 (stereo not drawn)
50	-1.3	1.5	O=C(Nc1ccc(N2CCOCC2)cc1)c1ccc2c(c1)OCO2
51	-0.04	2	COc1cccc(N2CCN(C(=S)NCCc3ccccc3)CC2)c1
52	-1.1	0.02	CC(=O)c1ccccc1C(=O)NCc1cccnc1
53	0.01	0.44	CCCC(=O)Nc1cccc(-c2nc3ccccc3c(=O)o2)c1
54	1.7	0.45	Cc1ccc(S(=O)(=O)N2CCN(C(=O)CSc3nnc(C)c(=O)[nH]3)CC2)cc1
55	-1.9	1.7	O=C(NCCC1=CCCCC1)C1CC(=O)N(C2CCCCCC2)C1 (stereo not drawn)
56	-0.15	1.4	Cc1c(CC(=O)O)c(=O)oc2cc(OCc3ccc(Br)cc3)ccc12
57	-0.26	0.06	CC(=C1C2C=CC1C1C(=O)NC(=O)C21)c1ccccc1 (stereo not drawn)
58	-2.1	2.5	CC(C)CN(C(=O)CSc1nnc(-c2ccco2)o1)c1c(N)n(Cc2ccccc2)c(=O)[nH]c1=O
59	-0.14	1.3	Nc1nonc1NC(=O)CSc1nc2ccccc2s1
60	-0.06	0.84	CC1(C)CC(NS(=O)(=O)c2ccc(Cl)cc2)CC(C)(C)N1
61	0.04	0.29	COC(=O)c1ccc(C)c(NC(=O)CCc2ccc(OC)c(OC)c2)c1
62	-1.4	0.29	COc1ccccc1C(=O)N/N=C(\C)c1ccc(NC(=O)Cc2ccccc2)cc1
63	-0.51	3	COc1ccc(Br)cc1C(=O)NC(=S)Nc1ccc(Cl)c(C(=O)O)c1
64	0.02	1.2	COc1cc(/C=N/O)ccc1Oc1cnccn1
65	0.04	0.22	CCC(C)N(C(=O)COc1ccc(-c2nnco2)cc1)C1CCS(=O)(=O)C1 (stereo not drawn)
66	1.7	0.97	Cc1ccc(-c2nc3cc(Cl)ccc3o2)cc1
67	0.31	0.13	O=C(NCc1ccccn1)/C(=N/O)c1ccccc1
68	-0.93	0.03	CC(=O)Nc1ccc(NC(=O)C(NS(=O)(=O)c2cccc3nsnc23)C(C)C)cc1 (stereo not drawn)
69	0.69	0.86	CCOC(=O)C1=C(C)N(CCCCCC(=O)O)C(=O)NC1c1ccc(Cl)cc1 (stereo not drawn)
70	-1.5	0.93	Cc1ccc(-n2ncc3c(=O)n(CC(=O)NC4CCCCC4)cnc32)cc1
71	-1.2	0.11	COCCCNCC(O)C(F)(F)F (stereo not drawn)
72	0.08	0.95	COc1ccc(C)cc1S(=O)(=O)Nc1cc(Cl)ccc1Cl
73	1.4	0.61	O=C(Nc1ccc2c(c1)OCCO2)c1cc(-n2cnnc2)ccc1Cl
74	-0.06	1.6	CC(=O)Nc1cc2c(cc1NC(=O)Cn1nc(-c3ccc(F)cc3)ccc1=O)OCCO2
75	0.17	2	Cc1cccc(Nc2nc(N)c([N+](=O)[O-])c(N3CCN(C)CC3)n2)c1
76	-1.5	0.69	CC(C)(C)c1ccc(C(=O)O/N=C(\N)c2ccccn2)cc1
77	-1.4	1.2	CCN(CC)S(=O)(=O)c1ccc(C(=O)NCc2ccc(C)cc2)cc1
78	-1.5	0.88	COc1ccc(CNc2nc3ccccc3s2)cc1OC
79	-0.05	1	CSCC[C@H](NC(=O)NCc1cccs1)C(=O)O
80	1.2	0.08	Cc1ccc(S(=O)(=O)N2CCN(C3CC4CCC3C4)CC2)cc1 (stereo not drawn)
81	0.46	0.05	CCOC(=O)N1CCN(Cc2ccc3ccccc3c2)CC1
82	1.2	0.25	COC(=O)/C(C#N)=C/c1ccc(C)o1
83	1.1	0.83	COc1cccc(NC(=S)N2CCN(c3ccccn3)CC2)c1
84	0.17	0.02	CN(C)CC/C=C1/c2ccccc2CS(=O)(=O)c2ccccc21
85	-1.8	0.21	S=C(NCc1ccccn1)Nc1ccccc1
86	-1.5	1.2	CCn1cc(C(=O)Nc2ccccc2C(=O)OC)cn1
87	0.16	1.1	COc1ccc(NC(=O)C2CCCN2S(=O)(=O)c2cccc3cccnc23)cc1OC (stereo not drawn)
88	1.1	0.36	C=CCNC(=S)Nc1ccc2nc(C)oc2c1
89	-1.1	1.5	COc1ccccc1NC(=S)NC(=O)Cc1ccc(Cl)cc1
90	0.02	0.46	Cc1ccc(CNC(=O)CCC2CCCN(Cc3cccc4cccnc34)C2)o1 (stereo not drawn)
91	-1.9	1.1	CCOC(=O)Cc1csc(NS(=O)(=O)c2cccc([N+](=O)[O-])c2)n1
92	-0.74	0.75	O=C(C1CCCN(CCCc2ccccc2)C1)N1CCCCC1 (stereo not drawn)
93	0.08	0.76	C/C(=N/NC(=O)CSc1nc2ccccc2n1C)c1ccc(O)cc1
94	-0.38	0.48	Cc1ccc(C(=O)Nc2cccc(NC(=O)c3cccnc3)c2)cc1
95	-0.02	1.1	Cc1ccc(CN2C(=O)CCC2C(=O)NC(C)C)cc1 (stereo not drawn)
96	-0.97	1.1	CCC(C(=O)NCCCN1CC(C)CC(C)C1)n1ncn2c(cc3occc32)c1=O (stereo not drawn)
97	0.97	0.53	CCCc1ccc(C(=O)NNc2ccccc2F)cc1
98	0.91	0.92	COc1cc2[nH]c(=O)n(CCC(=O)N3CCN(Cc4ccccc4)CC3)c(=O)c2cc1OC
99	0	0.91	O=C(O)CCCNS(=O)(=O)c1ccc2c(c1)OCCCO2
100	-0.56	4.8	Cc1cc(Nc2ccc(Cl)cc2)nc(N)n1
101	0.24	0.56	CCOC(=O)c1c(NC(=O)CSc2nnc(-c3c[nH]c4ccccc34)n2CCOC)sc2c1CCCCC2
102	-1.5	0.42	O=C(Cc1ccccc1F)Nc1ccc(SC(F)F)cc1
103	0.11	0.88	O=C(CCn1cnc2ccccc2c1=O)Nc1cccc(Cl)c1
104	-0.97	0.02	COc1cccc(N2C(=O)CC(Nc3ccc(N4CCOCC4)cc3)C2=O)c1 (stereo not drawn)
105	0.93	0.73	Cc1ccc2c(c1)sc1nc(=O)n(-c3ccc(Cl)cc3)c(=O)n12

Other records follow.
item	KCNQ2 pot baseline	KCNQ2 pot	SMILES
106	-1.5	3	CC(C)(C)C(=O)/C=c1\[nH]c(=O)/c(=C\c2ccc(F)cc2)s1
107	0.88	0.3	Cc1cccc(C(=O)Nc2cccc(OCC(=O)O)c2)c1
108	0.4	1.8	COC1=C(Nc2ccc(O)cc2)C(=O)c2ccccc2C1=O
109	0.16	4.4	CCc1nn(C)c(-c2n[nH]c(=S)n2N)c1Cl
110	0.25	0.51	CC(C)CC(C(=O)O)C(C)CC(=O)Nc1ccn(-c2ccccc2)n1 (stereo not drawn)
111	-0.01	0.61	NC(N)=NCCC[C@H](NC(=O)OCc1ccccc1)C(=O)O
112	0.46	0.02	CCCn1c(SCC(=O)NCc2ccccc2)nnc1-c1ccncc1
113	-0.76	0.55	COC(=O)c1ccc(NC(=O)N2CCCC(C(=O)c3ccccc3OC)C2)cc1 (stereo not drawn)

This is a subset, so the mix of outcomes need not match the whole.
